Source: PubChem BioAssay
Yeast UUG start – yeast start codon fidelity modulation; S. cerevisiae UUG-firefly luciferase reporter, luminescence/redox ratio; activity score, % at 18.7 µM; hit rate 0.13% among 350,000; AID 602363;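 active = replicate mean at a twofold rise or more, about +100% in these data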;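 also: firefly luciferase made from a UUG start codon reports start codon fidelity; reporter light over untreated wells divided by growth signal over untreated wells; some hits fall short of that in this replicate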
HIV Env fusion – blocks HIV Env-driven cell-cell fusion; HeLa-JRFL Env/CEM21 cell fusion, luciferase; inhibition, % at 12.3 µM; hit rate 1.1% among 360,000; AID 651610;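 active = mean replicate inhibition score of at least 50 and every replicate individually at or above 50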;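 also: 0% = plate neutral controls and 100% = maraviroc near 300 nM; one replicate is shown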
* marks the source's active call; other numbers are inactive results; & = joins results of further samples; [ ] = dose if it differs, or a comment. A portion of the library (hit frequency here may not be typical).

smiles,Yeast UUG start,HIV Env fusion
COc1ccc(S(=O)(=O)N(C)C[C@@H]2OCCCC[C@H](C)Oc3ccc(NS(=O)(=O)c4ccc(C)cc4)cc3C(=O)N([C@H](C)CO)C[C@@H]2C)cc1,0.4,-31.3[16.7 µM]
COc1ccc(CN(C)C[C@@H]2OCCCC[C@H](C)Oc3ccc(NS(=O)(=O)c4cccs4)cc3C(=O)N([C@H](C)CO)C[C@@H]2C)cc1,3.0,-1.6[16.7 µM]
C[C@H]1CN([C@@H](C)CO)S(=O)(=O)c2ccc(C3=CCCCC3)cc2O[C@@H]1CN(C)C(=O)c1ccncc1,-12.5,38.4[16.7 µM]
O=C(NCC[C@H]1CC[C@@H](NS(=O)(=O)Cc2ccccc2)[C@H](CO)O1)C1CCOCC1,0.4,-7.5[16.7 µM]
CC(C)NC(=O)N(C)C[C@H]1Oc2ncc(-c3cccc(C#N)c3)cc2C(=O)N([C@H](C)CO)C[C@H]1C,0.8,9.6[16.7 µM]
COc1ccc(CN(C)C[C@H]2OCCCC[C@H](C)Oc3ccc(NC(=O)Nc4ccc(OC)cc4)cc3C(=O)N([C@@H](C)CO)C[C@@H]2C)cc1,38.3,9.4[16.7 µM]
COc1cccc(C#Cc2ccc3c(c2)O[C@@H](CN(C)C(C)=O)[C@H](C)CN([C@@H](C)CO)S3(=O)=O)c1,-19.9,3.8[16.7 µM]
C[C@H]1CN([C@@H](C)CO)C(=O)Cc2cc(NC(=O)Nc3cccc4ccccc34)ccc2O[C@@H]1CN(C)C(=O)NC1CCCCC1,-8.8,23.5[16.7 µM]
Cc1ccc(-c2ccc3c(c2)O[C@@H](CN(C)Cc2ccncc2)[C@H](C)CN([C@H](C)CO)S3(=O)=O)cc1,13.9,89.9*[16.7 µM]
O=C(Cc1ccccn1)NCC[C@H]1CC[C@@H](NS(=O)(=O)c2ccc(F)cc2)[C@H](CO)O1,1.2,-7.4[16.7 µM]
C[C@H](CO)N1C[C@H](C)[C@H](CN(C)C(=O)Nc2ccc3c(c2)OCO3)Oc2ccc(N(C)C)cc2CC1=O,-6.3,27.6[16.7 µM]
C[C@@H]1CN([C@H](C)CO)C(=O)CCCn2nncc2CO[C@@H]1CN(C)Cc1ccccc1,-3.4,-14.7[16.7 µM]
C[C@H](CO)N1C[C@H](C)[C@H](CN(C)Cc2ccccc2)Oc2c(NS(=O)(=O)c3ccc(F)cc3)cccc2C1=O,6.2,-15.0[16.7 µM]
C[C@@H]1CN([C@@H](C)CO)C(=O)c2cc(NC(=O)Nc3ccccc3)ccc2O[C@@H](C)CCCCO[C@H]1CN(C)C(=O)Nc1cccc2ccccc12,-3.1,6.4[16.7 µM]
CNC(=O)C[C@@H]1CC[C@@H]2[C@@H](COc3ccc(NC(=O)c4cccc(F)c4)cc3C(=O)N2C)O1,-14.9&-2.6,-7.2&-22.4[16.7 µM]
C[C@@H]1CN([C@H](C)CO)C(=O)c2cc(NC(=O)c3ccccc3)ccc2O[C@@H](C)CCCCO[C@H]1CN(C)Cc1ccc2c(c1)OCO2,16.5,14.5[16.7 µM]
C[C@@H]1CCCCO[C@@H](CN(C)Cc2ccncc2)[C@@H](C)CN([C@H](C)CO)C(=O)c2cc(NC(=O)Nc3cccc4ccccc34)ccc2O1,0.4,-1.0[16.7 µM]
C[C@H](CO)N1C[C@H](C)[C@H](CN(C)C(=O)CC2CC2)Oc2ncc(C#CC3(O)CCCC3)cc2C1=O,-0.5,-12.0[16.7 µM]
C[C@@H]1CCCCO[C@@H](CN(C)C(=O)Nc2cccc3ccccc23)[C@H](C)CN([C@H](C)CO)C(=O)c2cc(NC(=O)Nc3ccc(F)cc3)ccc2O1,10.2,-16.7[16.7 µM]
Cc1noc(C)c1S(=O)(=O)Nc1ccc2c(c1)C(=O)N([C@@H](C)CO)C[C@H](C)[C@H](CN(C)S(=O)(=O)c1ccccc1)OCCCC[C@@H](C)O2,-6.2,-34.2[16.7 µM]
COCC#Cc1cnc2c(c1)C(=O)N([C@H](C)CO)C[C@H](C)[C@@H](CN(C)C(=O)Nc1cccc(F)c1)O2,2.0,1.8[16.7 µM]
Cc1noc(C)c1NC(=O)Nc1ccc2c(c1)C(=O)N([C@H](C)CO)C[C@H](C)[C@H](CN(C)Cc1ccncc1)OCCCC[C@@H](C)O2,-3.6,7.4
C[C@@H]1CN([C@H](C)CO)C(=O)c2cc(-c3ccccc3)cnc2O[C@H]1CN(C)C,5.6,-15.7[16.7 µM]
C[C@@H]1CCCCO[C@@H](CN(C)S(C)(=O)=O)[C@H](C)CN([C@H](C)CO)C(=O)c2cc(NC(=O)c3ccccc3)ccc2O1,0.0,15.0[16.7 µM]
C[C@@H]1CN([C@@H](C)CO)C(=O)Cc2cc(NC(=O)Nc3ccc(F)cc3)ccc2O[C@@H]1CN(C)S(=O)(=O)c1ccc(Cl)cc1,-12.0,9.1[16.7 µM]
Cc1ccc(S(=O)(=O)N(C)C[C@@H]2Oc3ccc(NC(=O)CCCCCC(=O)Nc4ccccc4N)cc3CC(=O)N([C@@H](C)CO)C[C@@H]2C)cc1,-5.1,23.8[16.7 µM]
COc1ccccc1NC(=O)N[C@@H]1CC[C@@H](CCNS(=O)(=O)c2ccc(F)cc2)O[C@H]1CO,22.2,3.8[16.7 µM]
NCC[C@H]1CC[C@@H](NC(=O)NC2CCCCC2)[C@H](CO)O1,3.5,-11.5[16.7 µM]
CN1C(=O)c2cc(NC(=O)c3cscn3)ccc2OC[C@H]2O[C@@H](CC(=O)NCC3CC3)CC[C@H]21,2.1,-0.8[16.7 µM]
C[C@H](CO)N1C[C@H](C)[C@@H](CN(C)C(=O)Nc2cccc3ccccc23)Oc2ccc(NC(=O)c3ccncc3)cc2C1=O,-1.6,14.7[16.7 µM]
C[C@@H]1CN([C@@H](C)CO)C(=O)c2cc(NS(=O)(=O)c3cn(C)cn3)ccc2O[C@H]1CN(C)Cc1ccccc1,-9.9,-8.2[16.7 µM]
O=C(C[C@H]1C=C[C@@H](NC(=O)C2CCC2)[C@H](CO)O1)NC1CCCCC1,-13.6,-9.8[16.7 µM]
CN(C)CC(=O)N1[C@H](C#N)[C@@H](c2ccc(-c3ccc(C(=O)N(C)C)cc3)cc2)[C@@H]1CO,15.8,-12.7[16.7 µM]
C[C@H]1CN([C@@H](C)CO)C(=O)c2cccc(NC(=O)Nc3ccc4c(c3)OCO4)c2O[C@@H]1CN(C)Cc1ccc(C(=O)O)cc1,-9.3,-11.2[16.7 µM]
O=C(Nc1ccc2c(c1)[C@H]1C[C@@H](CC(=O)N3CCCCC3)O[C@H](CO)[C@H]1O2)C1CCC1,15.6,-33.4[16.7 µM]
COc1ccc(NC(=O)N(C)C[C@@H]2Oc3ccc(NS(=O)(=O)c4c(C)noc4C)cc3CC(=O)N([C@H](C)CO)C[C@@H]2C)cc1,27.9,-10.0[16.7 µM]
C[C@@H]1CCCCO[C@@H](CN(C)C(=O)Cc2ccccc2)[C@H](C)CN([C@H](C)CO)C(=O)c2cc(NS(=O)(=O)c3ccccc3)ccc2O1,15.4,-30.6[16.7 µM]
CC(=O)N[C@H]1C=C[C@@H](CC(=O)NCC2CCCCC2)O[C@@H]1CO,-20.0,-21.1[16.7 µM]
C[C@H]1CN([C@@H](C)CO)C(=O)Cc2cc(N(C)C)ccc2O[C@@H]1CN(C)Cc1ccc(C(=O)Nc2ccccc2N)cc1,1.4,-52.2[16.7 µM]
C[C@H](CO)N1C[C@H](C)[C@@H](CN(C)C(=O)Nc2ccc(C(F)(F)F)cc2)OCCCC[C@H](C)Oc2ccc(NC(=O)Nc3ccc(C(F)(F)F)cc3)cc2C1=O,-17.2,39.0[16.7 µM]
Cc1noc(C)c1S(=O)(=O)Nc1ccc2c(c1)CC(=O)N([C@@H](C)CO)C[C@H](C)[C@H](CN(C)S(=O)(=O)c1cn(C)cn1)O2,9.7,10.1[16.7 µM]
Cc1ccc(S(=O)(=O)Nc2ccc3c(c2)C(=O)N([C@H](C)CO)C[C@@H](C)[C@H](CN(C)C(=O)Nc2cccc4ccccc24)O3)cc1,-7.9,-7.9[16.7 µM]
COc1cccc(NC(=O)N2C[C@H](O)COC[C@@H]3O[C@@H](CC(=O)N(C)C)CC[C@H]32)c1,-6.1,-13.2[16.7 µM]
O=C(Cc1ccccn1)NCC[C@@H]1CC[C@@H](NC(=O)Nc2ccc(F)cc2)[C@@H](CO)O1,0.3,13.3[16.7 µM]
CC(C)C#Cc1cnc2c(c1)C(=O)N([C@H](C)CO)C[C@H](C)[C@@H](CN(C)C(=O)Nc1ccc(F)cc1)O2,7.5,-6.8[16.7 µM]
C[C@@H]1CN([C@@H](C)CO)C(=O)c2cc(C#CC3CCCCC3)cnc2O[C@@H]1CN(C)C(=O)NC1CCCC1,21.1,-33.8[16.7 µM]
COc1cccc(C(=O)Nc2ccc3c(c2)OC[C@H](C)NC[C@@H](C)[C@H](OC)CN(C)C3=O)c1,-6.3,12.6[16.7 µM]
Cc1noc(C)c1NC(=O)Nc1ccc2c(c1)C(=O)N([C@H](C)CO)C[C@@H](C)[C@H](CN(C)C(=O)Nc1ccccc1)OCCCC[C@@H](C)O2,11.3,-1.7[16.7 µM]

3 successive records out of the list so far:
smiles,Yeast UUG start,HIV Env fusion
C[C@@H]1CCCCO[C@@H](CN(C)C(=O)Cc2ccccc2)[C@H](C)CN([C@H](C)CO)C(=O)c2cc(NS(=O)(=O)c3ccccc3)ccc2O1,15.4,-30.6[16.7 µM]
CC(=O)N[C@H]1C=C[C@@H](CC(=O)NCC2CCCCC2)O[C@@H]1CO,-20.0,-21.1[16.7 µM]
C[C@H]1CN([C@@H](C)CO)C(=O)Cc2cc(N(C)C)ccc2O[C@@H]1CN(C)Cc1ccc(C(=O)Nc2ccccc2N)cc1,1.4,-52.2[16.7 µM]

(cont.)
mol	Yeast UUG start	HIV Env fusion
C[C@H]1CN([C@@H](C)CO)C(=O)c2cccc(NS(=O)(=O)c3cn(C)cn3)c2O[C@@H]1CN(C)CC1CC1	-11.4	0.7[16.7 µM]
CCCNC(=O)N(C)C[C@@H]1Oc2ncc(-c3ccc(C(=O)N(C)C)cc3)cc2C(=O)N([C@@H](C)CO)C[C@H]1C	103.8*	9.0[16.7 µM]
C[C@@H]1CCCCO[C@@H](CN(C)C(=O)Nc2ccc(C(F)(F)F)cc2)[C@@H](C)CN([C@H](C)CO)C(=O)c2cc(NS(=O)(=O)c3ccc(Cl)cc3)ccc2O1	-7.9	-1.4[16.7 µM]
C[C@@H]1CN([C@@H](C)CO)C(=O)c2cc(NC(=O)C3CCCCC3)ccc2O[C@@H](C)CCCCO[C@H]1CN(C)C(=O)c1ccccc1	10.7	-7.3[16.7 µM]
COCC#Cc1ccc2c(c1)O[C@H](CN(C)Cc1cncnc1)[C@H](C)CN([C@H](C)CO)S2(=O)=O	-2.6	-12.0[16.7 µM]
C[C@@H]1CN([C@H](C)CO)C(=O)c2cc(C#CC(C)(C)O)cnc2O[C@H]1CN(C)C(=O)C1CCOCC1	8.6	10.7[16.7 µM]
C[C@H]1CN([C@@H](C)CO)C(=O)c2cc(N(C)C)ccc2O[C@H]1CN(C)Cc1ccc(C(=O)O)cc1	-18.3	16.9[16.7 µM]
CNC[C@H]1Oc2cc(-c3ccccc3OC)ccc2S(=O)(=O)N([C@H](C)CO)C[C@@H]1C	5.0	3.3[16.7 µM]
N#C[C@@H]1[C@H](c2ccccc2)[C@@H](CO)N1C(=O)Cc1ccccc1	9.0	-0.2[16.7 µM]
CC(C)CC#Cc1cnc2c(c1)C(=O)N([C@H](C)CO)C[C@H](C)[C@H](CN(C)C(=O)c1ccccc1)O2	20.9	9.0[16.7 µM]
O=C(C[C@@H]1C[C@@H]2c3cc(NS(=O)(=O)c4ccc(F)cc4)ccc3O[C@@H]2[C@@H](CO)O1)NCc1ccccn1	-29.3	12.7[16.7 µM]
COCC#Cc1ccc2c(c1)O[C@H](CN(C)C(=O)C1CCOCC1)[C@H](C)CN([C@@H](C)CO)S2(=O)=O	12.3	-10.9[16.7 µM]
CCNC(=O)Nc1ccc2c(c1)C(=O)N(C)[C@@H]1CC[C@@H](CC(=O)NCCN3CCCC3)O[C@H]1CO2	-1.1	-6.3[16.7 µM]
CN1C(=O)c2cc(NC(=O)c3cccc(Cl)c3)ccc2OC[C@H]2O[C@@H](CC(=O)NC3CCCCC3)CC[C@H]21	-2.9	56.3*[16.7 µM]
O=C(C[C@@H]1C=C[C@H](NC(=O)CN2CCOCC2)[C@@H](CO)O1)NCc1cccc(F)c1	-15.3	5.1[16.7 µM]
Cc1ccc(S(=O)(=O)N[C@H]2CC[C@@H](CCn3cc(C(C)C)nn3)O[C@H]2CO)cc1	-3.4	16.0[16.7 µM]
CCCC(=O)Nc1ccc2c(c1)C(=O)N(C)[C@@H]1CC[C@H](CC(=O)NCCc3ccncc3)O[C@@H]1CO2	-10.0	-17.6[16.7 µM]
C[C@H](CO)N1C[C@H](C)[C@H](CN(C)Cc2ccc(-c3ccccc3)cc2)Oc2c(NS(=O)(=O)c3ccc(F)cc3)cccc2C1=O	10.0	5.4[16.7 µM]
COc1ccccc1C#Cc1ccc2c(c1)O[C@H](CN(C)C)[C@@H](C)CN([C@H](C)CO)S2(=O)=O	3.3	5.2[16.7 µM]
CC(=O)N(C)C[C@@H]1Oc2cc(C#C[C@H](C)O)ccc2S(=O)(=O)N([C@@H](C)CO)C[C@H]1C	1.2	-7.6[16.7 µM]
